AID504770 = E. coli YBA685 growth inhibition, screen for V. cholerae RctB inhibitors | E. coli YBA685 rctB-dependent plasmid, OD600 growth, 3 h; hits give low values | z-score (test concentration not listed) | 130,000 compounds, 0.27% hits | AID 504770;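 active = z-score under -2 on both plates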;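 note: wells of about 30 µL received 100 nL stock; score is relative to mean and SD of the test wells; the first replicate is given; strong numbers were not always called active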
Ba CapD inh = blocks the Bacillus anthracis CapD enzyme; purified CapD enzyme, fluorescence intensity read-out; hits give low values; some hits fall short of the stated cut; 140,000 compounds, 0.23% hits; z-score (no concentration beside the values);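 active = z-score under -4 in either of two replicates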;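 note: stock transfer was 100 nL into about 40 µL; score is relative to mean and spread of the plate; one replicate is shown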
* hit, by the source's call; / = not tested or not shown.

structure	AID504770	Ba CapD inh
COc1cc(Cl)c(C)cc1NC(=O)COCc1cc(-c2ccco2)on1	0.6	0.095
CN(C(=O)CN1N=C(c2ccc(Cl)cc2)CCC1=O)c1ccccc1	-0.3	0.94
COc1ccc(CCN2C(=O)CSC2c2ccc([N+](=O)[O-])cc2)cc1OC (configuration not stated)	/	-0.18
O=C(Cc1n[nH]c(=O)c2ccccc12)Nc1ccccc1C(=O)NC1CCCC1	0	/
N#CCCNc1nncs1	-1	/
Cc1ccccc1NC(=S)NCc1ccco1	/	-0.18
Cc1ccc(C2C3=C(CC(C)(C)CC3=O)Nc3ccc4ccccc4c32)cc1[N+](=O)[O-] (configuration not stated)	/	-0.095
COC(=O)C1(C)NC(c2ccccc2C)C2C(=O)N(C)C(=O)C21 (configuration not stated)	-1.1	/
O=S(=O)(c1ccc2oc3ccc(S(=O)(=O)N4CCCCCC4)cc3c2c1)N1CCCCCC1	-0.45	1.9
CCOC(=O)C1=C(N)C(=O)N(CCCN2CCOCC2)C1	-2.5	0.29
NS(=O)(=O)c1cccc(C(F)(F)F)c1	1.8	0.04
CCN1CCCC1CNCC(=O)Nc1ccccc1C(=O)NCCc1ccc(OC)cc1 (configuration not stated)	1.5	/
Cc1ccccc1Cn1c(=O)n(Cc2ccco2)c(=O)c2ccc(C(=O)NC3CCCC3)cc21	-0.45	-1.3
CCN1CCN(S(=O)(=O)c2ccc(Cl)c(C(=O)NCCc3ccc4c(c3)OCCO4)c2)CC1	-0.2	/
O=C(Cc1n[nH]c(=O)c2ccccc12)N/N=C/c1ccc(-c2ccc(Br)cc2)o1	1.4	2.7
O=C(O)CSCC(=O)Nc1ccccc1Oc1ccccc1	0.45	-0.26
CN(C)c1nc(N2CCN(c3ccc(F)cc3)CC2)cc(C(F)(F)F)n1	/	0.49
O=C(c1ccccc1)c1ccc(N2CCCC2)cc1	0.45	0
O=C(O)c1ccccc1Cc1nc2cc(C(F)(F)F)ccc2c(=O)[nH]1	0.95	-0.29
Oc1ccc(Oc2ncc(Cl)cc2Cl)cc1	-0.85	/
CCOC(=O)C1=C(CN2CCOCC2)NC(=O)NC1c1cccs1 (configuration not stated)	0.3	0.71
CC12C(=O)C3C4CC5C3C(=O)C1C5C42 (configuration not stated)	-0.4	0.42
COc1ccc(/C=C2\N=C(c3ccc(Cl)cc3)N(c3cccc(F)c3)C2=O)cc1OC	/	-1.9
O=[N+]([O-])c1cc(-c2nnc3c(C(F)(F)F)nc4ccccc4n23)ccc1Cl	/	0.2
Cc1occc1-c1nnc(SCC(=O)c2c[nH]c3ccccc23)n1-c1ccccc1	0.75	/
O=c1[nH]c2ccc(N=Cc3ccccc3C(F)(F)F)cc2[nH]1	-0.75	/
Cc1ccc(C(=O)Nc2ccc3c(c2)CS(=O)(=O)C3)cc1	0.25	0.55
CN(C)S(=O)(=O)c1ccc(NCc2n[nH]c(=O)c3ccccc23)cc1	/	-0.35
Cc1ccc(S(=O)(=O)NC(=O)N2CCC(Nc3nccc(C(F)(F)F)n3)CC2)cc1	-0.8	7.4
COc1ccc(C2C=C(c3ccccc3)Nc3ncnn32)cc1 (configuration not stated)	-0.25	26
COc1ccc(Cc2nnc(SCC(=O)C(C)(C)C)n2-c2ccc(F)cc2)cc1OC	-0.9	-1.7
Cc1noc(C)c1COC(=O)/C=C/c1ccc2c(c1)OCO2	0.8	/
COc1ccc(CCNC(=O)c2cc(Sc3ccc(F)cc3)nc3ccccc23)cc1OC	/	0.68
Oc1ccc(-c2nc3ccccc3s2)cc1	-2.3*	/
O=C(CSc1nnc(COc2ccccc2)o1)N1CCc2ccccc21	0.45	/
CCN(CC)c1nc(N2CCOCC2)nc(N2CCOCC2)n1	-0.45	-0.01
O=C(Nc1nc2nc(-c3ccccc3)cc(=O)n2[nH]1)c1cccs1	1.5	-0.77
Cc1ccc(C)n1-c1nnc(N2CCC(C(=O)NC3CCCCC3)CC2)s1	0.3	-0.27
O=C(SCc1ccco1)c1c(Cl)nc2ccccn12	2	-0.44
CN1CCC(=NNC(=O)c2cccc(S(=O)(=O)Nc3cc(Cl)ccc3Cl)c2)CC1	0.35	/
CCOC(=O)c1cc(C(=O)CSc2ccc(C(F)(F)F)cn2)on1	-0.6	-0.005
CC(=O)NCc1nc2ccccc2[nH]1	2.2	/
Clc1cccc(C2N(Cc3ccccc3)CCN2Cc2ccccc2)c1Cl	/	0.36
OC1(C(F)(F)F)CC(c2ccc3ccccc3c2)=NN1 (configuration not stated)	/	1.1
CCCC(C(=O)O)N1C(=O)c2ccccc2C1=O (configuration not stated)	0.9	-0.77
CCCCC(CC)Cn1c(=S)[nH]c2c(sc3ccccc32)c1=O (configuration not stated)	0	0.12
COc1ccc(CNS(=O)(=O)c2cccc3nsnc23)cc1	2.5	-1.1
COC1CCCCC1Nc1cc(C)ccc1C (configuration not stated)	0.05	0.5
Cc1cccc2sc(NC(=O)c3ccncc3)nc12	-0.4	/
N#CC1=C(Nc2ccccc2)SC=C(c2ccccc2)N=C1N1CCOCC1	/	-0.38
COc1ccc(-c2cc(C(F)(F)F)n3nc(C(=O)NCc4ccc5c(c4)OCO5)cc3n2)cc1	/	6
c1ccc(CN2c3ccccc3-c3nc4ccccc4n3C2c2ccco2)cc1 (configuration not stated)	0.65	67
Cn1c(=O)c2c(nc(NCc3ccco3)n2C)n(C)c1=O	-0.25	-0.065
CC(Nc1ccc2c(c1)OCO2)C(=O)Nc1ccccc1 (configuration not stated)	0	/
COC(=O)C1=C(O)/C(=C\c2ccc(Br)cc2)N=C1C	-0.5	-1.8
Cc1cc(C(=O)COc2ccc(Br)cc2F)c(C)n1C1CC1	-0.1	/
CC(C)C(=O)Oc1ccc2c(=O)c(Oc3ccccc3Br)coc2c1	-0.1	0.62
Cc1cc(/C=C2/SC(=O)N(C)C2=O)c(C)n1-c1ccccc1	-0.8	-0.21
Cc1cc(CSc2cc(C)c(Cl)cc2C)no1	-0.5	10
O=C(c1ccc(C(=O)N2CCCCCC2)s1)N1CCCCCC1	-0.8	-0.28

Individual results from the list.
O=C(c1ccc(C(=O)N2CCCCCC2)s1)N1CCCCCC1 in AID504770 = -0.8
N#CC1=C(Nc2ccccc2)SC=C(c2ccccc2)N=C1N1CCOCC1 in Ba CapD inh = -0.38

The list goes on.
structure	AID504770	Ba CapD inh
COc1ccc(C(=O)OC(C)CN(C)C)cc1 (configuration not stated)	-0.95	-0.02
COc1ccc(/C=C/C(=O)Nc2cc(C)[nH]n2)cc1OC	0.3	-0.8
CCc1nc2ccccc2c(=O)n1-c1ccc(OC)cc1	-1.3	-0.045
COc1ccc(CCNC(=O)c2snnc2C)cc1	-0.6	/
O=C(NC(c1ccccc1)c1ccccc1)C1CCCO1 (configuration not stated)	0.25	/
Cc1oc(C(C)(C)C)cc1-c1cc(NC(=O)c2ccccc2)n[nH]1	-0.15	0.7
CC1CCC(C(C)C)C(OC(=O)COC(=O)c2ccc(O)cc2)C1 (configuration not stated)	-0.35	/
CCCCc1nnc(NC(=O)CC)s1	0.75	-0.77
O=C(Cn1cccc1C(=O)c1ccccc1)NCc1ccc2c(c1)OCO2	-0.15	-0.32
CCN(CC)CCNc1ncnc2c1cnn2-c1ccc(F)cc1	-1.3	-0.34
CCCCc1ccc(C(NC(=O)CCCn2cnc3c2c(=O)n(C)c(=O)n3C)c2cccs2)cc1 (configuration not stated)	-0.3	/
CC(=O)NC1C(O/N=C2/C(=O)N(CCOc3ccccc3C)c3ccc(C)cc32)OC(CO)C(O)C1O (configuration not stated)	0.05	/
O=C(CN1CCC(NC(=O)Nc2ccccc2-c2ccccc2)CC1)NCc1ccco1	-0.1	/
COc1ccccc1N(NC(=O)C(O)(c1ccc(F)cc1)c1ccc(F)cc1)C(C)=O	/	-0.11
O=C(c1ccc(NC2=NC3CS(=O)(=O)CC3S2)cc1)N1CCCCC1 (configuration not stated)	0.15	1.5
CCOC(=O)c1c(O)[nH]c(N=O)c1SC	-1.5	-0.12
Cc1ccc(S(=O)(=O)C2(C(=O)N(C)C3CCCCC3)CC2)cc1	0.25	0.045
Cc1onc(-c2c(Cl)cccc2Cl)c1NC(=O)O/N=C/c1cccc([N+](=O)[O-])c1	/	-0.19
Nc1ncnc2c1nc(SCCO)n2Cc1ccccc1	0.35	0.085
c1ccc(CNc2ncnc3sccc23)cc1	0	0.38
CN(C)c1ccc(-n2nnnc2SCC(=O)c2ccccc2)cc1	0.5	1.4
CCc1c(C)nc2cc(-c3cc(OC)cc(OC)c3)nn2c1NCCO	-0.6	/
CCOC(=O)/C(C#N)=C(/N)c1cc2cc(Br)cc(Br)c2oc1=O	-0.3	-0.19
CCOC(=O)c1oc2ccccc2c1COC(=O)c1cccc(S(=O)(=O)N(C)C)c1	0	/
CCCCc1cc2c(c(NC(=O)CC)n1)c(=O)oc1ccccc12	0.2	0.27
C=CCN1C(=O)C(=O)/C(=C(/O)c2ccc(Br)cc2)C1c1cccc(OC)c1 (configuration not stated)	/	-0.23
O=C(C/C=N/OCc1ccc(Cl)cc1)c1cnc(-c2ccccc2)s1	/	0.11
O=C(Nc1nc2ccc(Cl)cc2s1)c1cccs1	1.4	1.2
CCC(=O)Nc1nnc(SCc2cc(=O)c(OC(=O)c3cccs3)co2)s1	0.15	/
Cc1ccc2[nH]c(=O)c(N3CCOCC3)c(-c3ccccc3)c2c1	-0.05	/
COc1ccccc1NC(=O)Cc1cn2ccsc2n1	-0.85	-0.99
CN1CCN(C(=O)CSc2cc(=O)n(C)c3ccccc23)CC1	-0.2	13
N#CCCN(Cn1c2ccccc2c2ccccc21)c1ccccc1	0.75	-0.24
COc1cc(C(=O)NC2CC2)ccc1OC(F)F	2.9	/
CS(=O)(=O)c1nc2ccccc2s1	0.35	0.71
COc1ncnc2c1sc1nc3c(cc12)COC(C)(C)C3	-0.3	13
CCN(CC)C(=O)Cc1cccc(C)c1	2.5	-1.2
CC(N=C(NC#N)Nc1ccncc1)C(C)(C)C (configuration not stated)	-0.2	1.6
CC1(O)C2C3CC4C5C3C1C5C1(OCCO1)C42 (configuration not stated)	0.15	/
CCc1c(C)nc2c(C#N)c[nH]n2c1=O	-0.6	5.7
CC(=O)NC1=NN(c2ccccc2)C(=O)C1	-0.4	0.26
CNC(=O)C1CCN(S(=O)(=O)c2ccccc2)CC1	-0.2	/
CCOc1ccccc1NC(=O)c1ccc(F)c(S(=O)(=O)N2CCN(c3cc(C)ccc3C)CC2)c1	/	-0.56
Cc1cc(Br)c(-n2cccc2)c(Br)c1Cl	-0.8	0.24
CC(C)(C)n1ncc2c(=O)n(Cc3ccc(Cl)cc3)cnc21	0.75	-0.98

Reformatted as labelled records: two of the compounds above
> CS(=O)(=O)c1nc2ccccc2s1
- AID504770: 0.35
- Ba CapD inh: 0.71

> CC(N=C(NC#N)Nc1ccncc1)C(C)(C)C (configuration not stated)
- AID504770: -0.2
- Ba CapD inh: 1.6

(next part)
structure	AID504770	Ba CapD inh
O=C(NCc1cccs1)C(NS(=O)(=O)c1cccc2nsnc12)c1ccccc1 (configuration not stated)	1.3	0.085
Cc1cccc(NC(=S)N(CCc2ccncc2)C2CCCCC2)c1	1.2	0.23
Cc1ccc2nc(N3CCCC3)nc(-c3ccccc3)c2c1	2	/
CCCCCCC#CCCOC(=O)NCc1ccc(S(N)(=O)=O)cc1	/	0.15
Cc1ccc(C(=O)Nc2nnc(-c3ccccc3)o2)cc1C	0.8	-0.44
Cn1cc(C2NC(=O)c3c(sc4c3CCCC4)N2)c2ccccc21 (configuration not stated)	0.15	0.17
CSc1nc(C(=O)O)cc(=O)[nH]1	-0.1	-0.58
O=C(NC1CC1)C1CCN(S(=O)(=O)N2CCCC2)CC1	1.8	-0.23
CC(=O)NC(=O)c1cc2c(ccc3ccccc32)oc1=Nc1ccc(C)cc1	-0.45	-0.055
O=C(CSc1nc2cc(C(=O)NCc3ccco3)ccc2c(=O)n1-c1ccc(F)cc1)c1ccccc1	/	1
COc1cc(/C=c2\sc3n(c2=O)NC2(c4ccccc4)N(C)C(=O)N(C)C2(c2ccccc2)N=3)cc(Br)c1O (configuration not stated)	/	-0.2
COC(=O)c1sccc1NC(=O)c1ccc(Cl)s1	-0.3	0.91
CC(Oc1ccc2c(-c3ccccc3)cc(=O)oc2c1)C(=O)O (configuration not stated)	-0.9	3.9
COC(=O)C(NC(=O)OCc1ccccc1)C(C)OS(=O)(=O)c1ccc(C)cc1 (configuration not stated)	/	-0.06
CC(=O)Oc1ccc(/C=C2\N=C(c3cc([N+](=O)[O-])ccc3Cl)OC2=O)c(OC(C)=O)c1	/	0.28
COc1ccc(-c2noc(N3CCC(C(=O)NCCN4CCc5ccccc5C4)CC3)n2)cc1	-0.05	-2.5

Bioassay records deposited in PubChem BioAssay by ICCB-Longwood Screening Facility, Harvard Medical School.

An excerpt, so the mix of outcomes need not match the whole.
